Screening results (PubChem BioAssay)
ClpP mod: qHTS Assay for Activators of ClpP | purified B. subtilis ClpP, FRET peptide cleavage, 20 min | Potency, µM (titrated, usually from 57.5 µM), for the others: at the highest dose activity change, negative = active | 340,000 tested, 1.9% active; active = well fitted falling curve with a large enough effect; inconclusive = small, poorly fitted or top-dose-only effect; inactive = no such curve, though single readings can be large or run the other way; note: the source files actives as falling curves though it sought activators and does not explain the sign; nearly all actives have a fitted effect of over 65% in size; many hits overshoot -100%
Target sequence (P80244 whole entry, looked up): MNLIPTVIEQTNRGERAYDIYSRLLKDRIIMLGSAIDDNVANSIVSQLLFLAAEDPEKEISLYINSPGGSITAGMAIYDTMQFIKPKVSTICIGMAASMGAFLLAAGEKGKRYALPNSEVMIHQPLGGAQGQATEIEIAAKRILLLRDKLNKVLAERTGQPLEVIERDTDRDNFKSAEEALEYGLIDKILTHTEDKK
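ClpP 10 microg/mL final, pH 8 Tris/KCl buffer with BSA, glycerol, Tween-20; compound pinned in; FRET-FV substrate; RT 20 min; Ex320/Em430; ΔFRET vs ADEP 5.8 microM, DMSO, no enzyme.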
* = called active by the depositor; ? = inconclusive; & = joins results of further samples. Potency is the fitted concentration of half-maximal effect. An excerpt; rates above refer to the full screens.

structure | ClpP mod
CCOC(=O)c1c(C)c(-c2ccccc2)n(CC(=O)NCc2cccc(OC)c2)c1C | -0.7%
COC(=O)C1(C(=O)OC)C/C=C\CN(S(=O)(=O)c2ccccc2[N+](=O)[O-])CC1 | 2.1%
CCOc1ccccc1NC(=O)CC(c1ccc(F)cc1)N1Cc2ccccc2C1=O (centres undefined) | 1.7%
O=C1c2[nH]nc(-c3ccccc3O)c2C(c2cccc(O)c2)N1Cc1ccncc1 (centres undefined) | -1.7%
Cc1ccc2c(c1)sc1nc(-c3cc4ccccc4oc3=O)cn12 | -5.3%
CCCCn1nc(NC(=O)c2cccc(Cl)c2)c2cc3ccccc3nc21 | 115%
Cc1ccc(CN2CCN(C3CCN(C(=O)OC(C)(C)C)CC3)C(=O)C2=O)cc1 | 0.3%
Cc1cc(C)cc(NC(=O)CCCn2c(=O)c3cccn3c3ccccc32)c1 | -0.9%
COCCCn1c(=N)c(C(=O)NCc2ccco2)cc2c(=O)n3cccc(C)c3nc21 | 3.7%
Cc1ccc(NC(=O)CSc2nnc(C)n3c2cc2sccc23)c(C)c1 | 0.5%
O=C(NCCN1CCC(n2c(=O)[nH]c3ccccc32)CC1)c1ccccc1 | 1.2%
CCOC(=O)c1ccc(Oc2nc(C)nc3c2oc2ccccc23)cc1 | -2.8%
COc1ccc(N2CCN(C(=O)c3ccc(Nc4nc5ccccc5n5nnnc45)cc3)CC2)cc1 | -9.4%
COc1ccccc1C1Nc2ccccc2-n2c(-c3ccccc3)c3c(=O)n(C)c(=O)n(C)c3c21 (centres undefined) | 4.4%
Cc1sc2ncn(CC(=O)N(C)c3cccc(C(F)(F)F)c3)c(=O)c2c1S(=O)(=O)N1CCN(c2ncccn2)CC1 | -13%
CCOC(=O)[C@]12CCCC=C1N(Cc1ccc(Cl)cc1Cl)C(=O)[C@H](CC(=O)NCc1cccc3ccccc13)C2 | -8.4%
COc1ccc(Br)cc1C1Sc2ccccc2NC2=C1C(=O)c1ccccc12 (centres undefined) | 0.9%
O=C(O)c1ccc(NC(=O)c2cc3c([nH]c2=O)CCCC3=O)cc1 | ?
COc1cccc(CN2C(=O)C3(SCC(=O)N3c3ccc(F)cc3)c3ccccc32)c1 (centres undefined) | -2.2%
COc1cccc(CNC(=O)C(=O)NCC(c2ccco2)S(=O)(=O)c2ccccc2)c1 (centres undefined) | -1.5%
CCOc1ccccc1NC(=O)CSc1c(C)cnc2c1c(=O)n(C)c(=O)n2C | -0.3%
CC(=O)Nc1ccc(C(=O)Nc2ccc3c(c2)N(C2CCCC2)C(=O)c2ccccc2S3)cc1 | ?
Cc1ccccc1-n1c(/C=C/c2c(C)n(C)c3ccccc23)nc2ccccc2c1=O | 1.3%
CCOC(=O)c1noc2nc(C)n(CC(=O)Nc3ccccc3F)c(=O)c12 | -2.0%
COc1cccc(OC)c1C(=O)Nc1cccc(-c2cn3ccsc3n2)c1 | -4.9%
COc1ccc(NC(=O)CN2C(=O)CSc3ccc(S(=O)(=O)N(C)C)cc32)cc1Cl | -1.4%
COc1cccc(NC(=O)Cn2c(=O)n(Cc3ccco3)c(=O)c3cc(OC)c(OC)cc32)c1 | 28µM*
OCc1nc2ccccc2[nH]1 | -2.1%
CCn1cc(S(=O)(=O)c2cccc(C)c2)c(=O)c2cc(F)c(N3CCN(c4ccccc4)CC3)cc21 | 4.6%
O=C(CSc1nc(=O)n(Cc2ccco2)c2c1CCC2)NCc1ccc(F)cc1 | -0.4%
Cc1cccc(Nc2cc(C)nc3nc(Cc4ccc(Cl)cc4)nn23)c1 | -1.0%
Cc1cc(S(=O)(=O)C(CNC(=O)COc2ccccc2)c2cccs2)ccc1F (centres undefined) | 2.4%
c1nc(NCc2ccc3c(c2)OCO3)c2[nH]cnc2n1 | 0.3%&1.0%
COc1ccc(CCNC(=O)c2cc3ccc(Cl)cc3nc2N)cc1 | -21%
Cc1cc(C)n(CCc2nc3c4ccccc4nc(N4CCN(c5cccc(C)c5C)CC4)n3n2)n1 | -0.7%
O=C(Nc1ccccc1[N+](=O)[O-])c1csnn1 | -2.2%
CCc1ccccc1-n1nnc(-c2nsc(NC(=O)c3ccc(C)c(C)c3)n2)c1C | ?
Cc1ccc(Cl)cc1NC(=O)CSc1nc2c(c(=O)[nH]1)CN(Cc1ccccc1)CC2 | 2.8%
O=S(=O)(Nc1cc(F)ccc1F)c1ccc2[nH]c3c(c2c1)CCCCC3 | -10%
C=C1NN(CC#N)C(=O)N1c1ccc(OCc2ccccc2)cc1 | -0.4%
Cc1ccc(N(C)S(=O)(=O)c2ccc3c(c2)C(C)(C)C(=O)N3C)cc1C | -0.6%
CCOC(=O)C1CCCN(C(=O)Cn2ncc3c4ccccc4n(Cc4ccc(F)cc4)c3c2=O)C1 (centres undefined) | 4.4%
Cc1ccc(C)c(Nc2nn3c(=O)c4cc5c(cc4nc3s2)OCO5)c1 | -0.9%
Cn1c(SCC(=O)N2CCOCC2)ncc(C(=O)Nc2ccccc2)c1=O | -13%
CS(=O)(=O)c1cccc(-c2nnc(NC(=O)c3ccc4c(c3)OCCO4)o2)c1 | -2.7%
O=C(C(=O)N1CCN(c2ccccc2)CC1)c1cccc(Br)c1 | -0.8%
CN1CCN(C2CN(Cc3cn(Cc4ccc(Cl)cc4)nn3)S(=O)(=O)C2)CC1 (centres undefined) | -0.6%
O=C1CN(C(=O)COc2ccccc2)C(c2ccc(F)cc2)c2cc(Br)ccc2N1 (centres undefined) | -1.2%
Fc1ccc([C@@H]2Nc3ccccc3[C@@H]3C=CC[C@@H]32)cc1 | -1.7%
O=C(C[C@H]1C=C[C@H](NC(=O)Nc2ccccc2F)[C@@H](CO)O1)NCc1ccc(-c2ccccc2)cc1 | -1.9%

Next section.
structure | ClpP mod
Cc1cc2c(cc1NS(=O)(=O)c1ccc(Br)cc1)n(C)c(=O)c(=O)n2C | -5.3%
COc1ccc(-c2c3c(=O)n(C)c(=O)n(C)c3c3n2-c2ccccc2NC3c2ccc(O)cc2O)cc1 (centres undefined) | 3.9%
CCOC(=O)c1c(C)c(-c2ccccc2)n(CC(=O)NC2CCCCCC2)c1C | -1.7%
CCOc1ccccc1C1CC(=O)NC(C)=C1C(=O)OCc1ccc(C)cc1 (centres undefined) | -1.9%
CC(C)C[C@@H](COCc1ccc(Cl)cc1)N1CCN(C(=O)c2ccc(C(F)(F)F)cc2)CCC1=O | 2.2%
COc1ccc2c(CNCc3ccco3)c(C(=O)O)n(Cc3ccccc3)c2c1 | -30%
O=C(Cn1c(-c2cccs2)cc2cc(F)ccc21)NCCc1ccc(Cl)cc1 | 3.9%
CCOC(=O)c1c(NC(=O)COc2ccc(F)cc2)sc2c1CCC(C)C2 (centres undefined) | -0.5%
COc1cccc(N2CCN(C(=O)c3nc(-c4ccc(Cl)cc4)n4c3CCCCC4)CC2)c1 | -0.7%
COc1ccc(OC)c(-n2cnc3cc(C(=O)NCCc4ccccc4)ccc32)c1 | -5.4%
COc1ccc(CN2C(=O)C(CC(=O)NCCc3ccccn3)CC(C(=O)N3CCCCCC3)=C2C)cc1 (centres undefined) | 1.2%
CCOCCc1nn2c(=O)cc(COC(=O)c3ccccc3NC(=O)CC(C)C)nc2s1 | -21%
O=C(c1ccc2c(c1)N(Cc1ccc(Cl)cc1)C(=O)c1ccccc1S2=O)N1CCCCC1 (centres undefined) | -0.4%
COC(=O)C[C@@H]1C=C[C@@H](NC(=O)C2CCC2)[C@@H](CO)O1 | 0.7%
Cc1ccccc1S(=O)(=O)Cc1ccc(C(=O)NCc2ccccc2Cl)o1 | -1.2%
Cc1ccc(Cn2cc(C(=O)c3ccc4c(c3)OCO4)c(=O)c3cc(C)ccc32)cc1 | -2.2%
CSc1ccc(/C=C2\C=Cc3ccccc32)cc1 | 0.2%
Cn1c(=O)c2c(-c3ccc(Cl)cc3)n(Cc3ccccc3)cc2n(C)c1=O | 3.9%
COc1ccc(OC)c(NC(=O)Cc2c(C(=O)O)n(C)c3ccc(C)cc23)c1 | -4.5%
COc1cccc(NC(=O)CCCn2c(=O)c3cccn3c3cccnc32)c1 | ?

Next results follow:
structure | ClpP mod
CC(=O)N1CCCc2cc(S(=O)(=O)N3CCC(C(=O)Nc4cccc(Cl)c4C)CC3)ccc21 | 0.8%
Cc1ccc(N(C)S(=O)(=O)c2nnc(NC(=O)CC(C)C)s2)cc1 | -0.5%
Cc1c2cnn(CC(=O)NCc3ccccc3)c(=O)c2c(C)n1Cc1cccc(Cl)c1 | -6.4%
Cc1cccc(C)c1-n1nnnc1C1(C)CCC(=O)N1C1CC1 (centres undefined) | -0.2%
CCc1ccccc1NC(=O)Cn1nnc(C(=O)Nc2ccc(OC)c(OC)c2)c1N | -8.8%
CC(=O)N1CCc2c(sc3c2c(=O)n(-c2ccccc2C)c(=O)n3CC(=O)c2ccccc2)C1 | -2.6%
COc1ccc(NC(=O)c2cc(-c3sc(NC(=O)c4ccccc4)nc3C)n(CCO)n2)cc1 | -18%
O=S(=O)(c1ccc(-c2cc(C(F)(F)F)on2)s1)N1CCN(c2cccc(Cl)c2)CC1 | 0.8%
CC(C)c1ccc(NC(=O)C2CCN(S(=O)(=O)c3ccc(Br)s3)CC2)cc1 | -0.5%
COc1cc(OC)cc(-c2c(Sc3ccccc3)c3cc(-c4ccc(OC)c(OC)c4)ccc3n2C)c1 | 5.7%
CCOC(=O)C[C@@H]1OC[C@H](Cc2ccccc2)N1S(=O)(=O)c1ccc(C)cc1 | 1.2%
Cc1[nH]c2ccccc2c1SCCNC(=O)c1ccc(F)cc1 | -0.1%

Quoted at random: four records from the list.
structure | ClpP mod
Cc1cccc(C)c1-n1nnnc1C1(C)CCC(=O)N1C1CC1 (centres undefined) | -0.2%
CCOC(=O)C[C@@H]1OC[C@H](Cc2ccccc2)N1S(=O)(=O)c1ccc(C)cc1 | 1.2%
CC(=O)N1CCCc2cc(S(=O)(=O)N3CCC(C(=O)Nc4cccc(Cl)c4C)CC3)ccc21 | 0.8%
COc1ccc(NC(=O)c2cc(-c3sc(NC(=O)c4ccccc4)nc3C)n(CCO)n2)cc1 | -18%

Already shown: six of the compounds above.
structure | ClpP mod
CC(=O)N1CCCc2cc(S(=O)(=O)N3CCC(C(=O)Nc4cccc(Cl)c4C)CC3)ccc21 | 0.8%
Cc1ccc(N(C)S(=O)(=O)c2nnc(NC(=O)CC(C)C)s2)cc1 | -0.5%
Cc1c2cnn(CC(=O)NCc3ccccc3)c(=O)c2c(C)n1Cc1cccc(Cl)c1 | -6.4%
Cc1cccc(C)c1-n1nnnc1C1(C)CCC(=O)N1C1CC1 (centres undefined) | -0.2%
CCc1ccccc1NC(=O)Cn1nnc(C(=O)Nc2ccc(OC)c(OC)c2)c1N | -8.8%
CC(=O)N1CCc2c(sc3c2c(=O)n(-c2ccccc2C)c(=O)n3CC(=O)c2ccccc2)C1 | -2.6%

(more compounds)
structure | ClpP mod
C=CCC(CC=C)(CNC(=O)C(=O)Nc1cccc(C(F)(F)F)c1)c1ccccc1 | -0.6%
COC(=O)c1ccccc1NC(=O)c1sc2nc(C)cc(C)c2c1NC(=O)c1ccccc1Cl | 4.7%
Cc1cc(C)cc(NC(=O)CCC(=O)N2Cc3ccccc3Oc3ncccc32)c1 | 1.2%
Cc1ccc(C)c(N2CCN(C(=O)CCc3c(C)nc4c(c3C)c(=O)n(C)c(=O)n4C)CC2)c1 | 1.3%
COC(=O)C[C@H]1CC[C@H](NC(=O)Nc2ccccc2OC)[C@@H](CO)O1 | -4.9%
COc1ccc(C(CC(=O)Nc2ccc(C)cn2)N2Cc3ccccc3C2=O)cc1OC (centres undefined) | -1.6%
CCCn1c2ccccc2c2cnn(CC(=O)N3CCN(c4ccccc4)CC3)c(=O)c21 | -28%
COc1ccc(-c2c(C(=O)c3ccccc3)[nH]c(N)c2C(=O)c2ccccc2)cc1OC | 2.2%
Cc1ccc(CN(C(=O)c2ccccc2Br)C2CCS(=O)(=O)C2)o1 (centres undefined) | -6.4%
CN(C)S(=O)(=O)c1ccc2c(c1)nnn2CCNC(=O)Nc1ccc(Cl)cc1 | -0.9%
COc1cccc(NC(=O)CSC2=Nc3ccccc3C3=NC(CC(=O)NCCc4ccccc4)C(=O)N23)c1 (centres undefined) | -15%
Cc1ccc(S(=O)(=O)c2cn(Cc3ccc(F)cc3)c3cc(F)c(F)cc3c2=O)cc1 | 0.7%
CCCNC(=O)C1Cc2cc(S(=O)(=O)N3CCCCCC3)ccc2N1C(C)=O (centres undefined) | 1.8%
C1NNCC12CNNC2 | 0.6%
CCCS(=O)(=O)N1CC(=O)N(c2cccc(Cl)c2)C(C)(C(=O)NC2CCCCC2)C1 (centres undefined) | -0.8%
CC(=O)N1CCCc2cc(S(=O)(=O)N3CCCC(C(=O)Nc4cc(Cl)ccc4C)C3)ccc21 (centres undefined) | 1.1%
CC1=C(c2ccc(C)c(C)c2)S(=O)(=O)N(Cc2ccc(C(=O)NC(C)c3ccccc3)cc2)C1=O (centres undefined) | 5.6µM*
Cc1ccc(-n2nnnc2CNC(=O)c2ccccc2F)cc1C | -0.8%
COc1ccc(-c2nc3cc(NC(=O)COc4ccc(F)cc4)ccc3o2)cc1 | 3.8%
COc1ccc(-c2nc(SCC(=O)Nc3ccccc3)c(-c3ccc(F)cc3)[nH]2)cc1OC | -11%
Cc1ccc(C)c(Cn2c(C)c(CNCc3ccc(F)cc3)c(C(=O)O)c2C)c1 | 6.7%
CCCC(=O)NC(C)c1nc2ccccc2n1Cc1ccccc1 (centres undefined) | -0.7%
N#Cc1ccc(C(C(=O)NC2CCCCC2)n2c(=O)c(-c3ccco3)nc3ccccc32)cc1 (centres undefined) | 4.8%
CCOCc1cc(CN2CCN(c3ccccc3OC)CC2)c(O)c2ncccc12 | -0.2%
CCOc1ccc(C2C(=O)N(C3CCCCC3)CC(=O)N2C2CCCC2)cc1OC (centres undefined) | -1.0%
CSc1ccc(CCNC(=O)c2cc3c(-c4ccccc4F)nn(C)c3s2)cc1 | 3.6%
CCOc1ccccc1NC(=O)N1CC(CC)Oc2ccccc21 (centres undefined) | -0.7%
